# HPGD inh: qHTS Assay for Inhibitors of HPGD (15-Hydroxyprostaglandin Dehydrogenase); purified HPGD, NADH fluorescence kinetic, PGE2 substrate; Potency, µM, inactives show top-dose activity change, negative = inhibition, most hits filed as inhibitors; actives 4.3% (n = 150,000); AID 894, 2007; active = well fitted inhibition curve with a large enough effect (not every such curve was filed as active); inconclusive = small, poorly fitted or top-dose-only effect, or another doubt; inactive = no such curve, though single readings can be large or run the other way;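 further: top concentration of the series not given in the record; plate controls included wells without enzyme; inactives centre near -10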
# Target sequence (P15428 whole entry, looked up): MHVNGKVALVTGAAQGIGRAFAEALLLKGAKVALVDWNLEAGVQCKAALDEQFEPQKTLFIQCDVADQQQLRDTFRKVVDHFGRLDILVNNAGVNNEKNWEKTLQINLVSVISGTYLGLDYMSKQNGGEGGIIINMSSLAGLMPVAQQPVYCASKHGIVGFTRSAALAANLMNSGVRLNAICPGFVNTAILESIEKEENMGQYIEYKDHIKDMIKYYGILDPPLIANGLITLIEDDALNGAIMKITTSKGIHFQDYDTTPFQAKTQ
#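 NADH formation kinetics: reaction with 30 uM PGE2 and 1 mM NAD+ (final), 20 nM enzyme, Tris-HCl pH 8 with Tween 20, after 15 min compound preincubation at room temperature. Fluorescence change, last versus first of five reads.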
# * marks the source's active call; other numbers are inactive results; ? = inconclusive. On the % scale 0 is the no-effect control and ±100 the full control effect; potency means the concentration at half of the fitted maximal effect. These rows are one share of the data. The share of hits here may be higher or lower than overall.
HPGD inh	canonical_smiles
-6%	CCCC(C)C(=O)Nc1ccc(C(N)=O)cc1 (stereo unspecified)
-16%	Cc1c(NS(=O)(=O)c2ccc(N(C)C3CCCCC3)c([N+](=O)[O-])c2)c(=O)n(-c2ccccc2)n1C
-19%	COc1ccc(CCCC(=O)N/N=C/c2cccc(OC)c2O)cc1C
-16%	CCC1CCc2c(sc(NC(=O)c3ccco3)c2C(N)=O)C1 (stereo unspecified)
-16%	COc1ccc(C2=CC3=C(Br)C(=O)C(C)(OC(=O)c4cnc5ccccc5n4)C(=O)C3=CO2)cc1 (stereo unspecified)
-6%	CCOC(=O)c1c(NC(=O)CSc2nc3c(c(=O)n(C)c(=O)n3C)n2C(C)C)sc(C)c1C
-11%	CC(=O)c1coc2ccc(OCCN3CCCCC3)cc12
-14%	COc1ccc(OCCNC(=O)c2ccccc2OCC(=O)N2CCCCC2)cc1
-11%	Cc1cc2cc(C)c3nnc(SCC(=O)N4CCCc5ccccc54)n3c2cc1C
-20%	N#Cc1ccc(C2=NC(C(F)(F)F)(C(F)(F)F)c3c(n(Cc4ccco4)c(=O)[nH]c3=O)N2)cc1
-13%	CCC(=NCCc1ccccc1)C1=C(O)CCC1=O
2%	Cc1c(NC(=O)CCC(=O)N2CCOCC2)c(=O)n(-c2ccccc2)n1C
-25%	COc1ccc(N2CCN(C(=O)CSc3nc4cc(OC)c(OC)cc4cc3C#N)CC2)cc1
-1%	O=C(Nc1ccccn1)C1CCN(S(=O)(=O)c2cccs2)CC1
-14%	CCc1ccc(OC(=O)c2ccn(CC)n2)cc1
-17%	Cc1cccc(-n2c(SCC(=O)NC3CCCC3)nnc2-c2ccoc2C)c1
-20%	CC(C)CC(COCc1ccc(C(F)(F)F)cc1)N1CCN(C(=O)c2ccc(C(F)(F)F)cc2)CCC1=O (stereo unspecified)
-24%	Cc1ccc2c(c1)C(O)(CC(=O)/C=C/C=C/c1ccccc1)C(=O)N2 (stereo unspecified)
-6%	OC(COCCOc1ccc(Br)cc1)CN1CCCCC1 (stereo unspecified)
-12%	O=C(CCN1CCN(c2ccccc2)CC1)Nc1ccc(Cl)cc1
-3%	CCOC(=O)C(CC)(CCC(=O)O)c1csc(N)n1 (stereo unspecified)
6.3µM*	O=C(C1CCC(CNS(=O)(=O)c2cccc3cccnc23)CC1)N1CCCC1 (stereo unspecified)
-17%	C=CCS/C(=N\n1cnc2ccccc2c1=O)N1CCCCC1
?	Nc1c(Cl)cc(Cl)cc1C(=O)OCC(=O)NC1CC1
-30%	COC1=Cc2c(ccc3ccc(=O)oc23)OC1(C)C
-30%	CC(=O)Nc1ccc(S(=O)(=O)NCC2CCC(C(=O)NCCC(C)C)CC2)cc1 (stereo unspecified)
-6%	Cc1nn(C(=O)c2ccco2)c(C)c1Sc1ccccc1
-5%	COC(=O)CCCC1=CC2=C(c3ccccc3)C(=O)C(C)(OC(=O)C3CCCC3)C(=O)C2=CO1 (stereo unspecified)
-23%	CCOc1ccc(N=C2SC(C(=O)O)CC(=O)N2C)cc1 (stereo unspecified)
-1%	Cc1cccc(N2CC(C(=O)O)CC2=O)c1 (stereo unspecified)
-7%	O=C(c1ccc(COc2ccccc2Br)o1)N1N=C(C(F)F)CC1(O)C(F)F (stereo unspecified)
-13%	Cn1c(SCc2ccccc2)nnc1-c1cccs1
28µM*	CCN(CC)C(=O)c1cc2cc([N+](=O)[O-])ccc2s1
1%	CCN(C#N)c1nc(NC(C)C)nc(NC(C)C)n1
-8%	COc1ccccc1N1CCN(CCC(=O)Nc2ccc3c(c2)OCO3)CC1
-10%	CCOC1(OCC)N=C(N)C2(C#N)C(c3cccc(C)c3)C12C#N (stereo unspecified)
-8%	CC(=O)c1ccc(NC(=O)C2CCCN2S(=O)(=O)c2cccc3cccnc23)cc1 (stereo unspecified)
-7%	NS(=O)(=O)c1cc(C(=O)OCC(=O)NC2CC2)ccc1Cl
-13%	O=C(Nc1cccc2ncccc12)c1cccc(F)c1
-17%	CC(C)Cn1c(=O)c(C(=O)Nc2cnccn2)c(O)c2ccccc21
1%	Cc1[nH]c2ccccc2c1C(=O)CN1C(=O)NC2(CC(C)CC(C)(C)C2)C1=O (stereo unspecified)
-11%	CC(C)Sc1nc(N2CCOCC2)c2c3c(sc2n1)COC(C)(C)C3
2%	CCC(Sc1nc(=O)cc(N)n1CCc1ccccc1)C(=O)Nc1ccccc1C#N (stereo unspecified)
3.2µM*	COc1ccc(OC)c(S(=O)(=O)Nc2ccc(O)c3ccccc23)c1
-10%	O=S(=O)(NCc1cccnc1)c1cccc2nsnc12
-13%	O=C(CSc1nc2ccccc2o1)Nc1ccccc1
-13%	CC1(C)CC(=O)C=C(NCc2ccccc2)C1
-4%	CC1CCN(S(=O)(=O)c2cccc(C(=O)Nc3ccccn3)c2)CC1
?	Cc1c(C)c2ccc(OS(C)(=O)=O)cc2oc1=O
-24%	CC(NC(=O)Cc1ccccc1)c1cc2c(cc1Br)OCCCO2 (stereo unspecified)
-10%	O=[N+]([O-])c1cccc(CN(CCO)Cc2ccccc2)c1
-17%	CC1N(O)C(C)(C)C(c2ccccc2)=[N+]1[O-] (stereo unspecified)
-6%	Cc1c(C(=O)N2CCC(C(N)=O)CC2)sc(N)c1C#N
-4%	COc1ccc(O[C@H]2C=C[C@@H](c3ccccc3)O[C@@H]2CO/N=C(\C)CCN2CCc3nc(-c4ccccc4)c(-c4ccccc4)cc3C2)cc1
-17%	COc1ccccc1Nc1nc(-c2sc(NC(=O)c3ccc([N+](=O)[O-])cc3)nc2C)cs1
0%	CC1CN(CCOc2ccc(Cl)cc2Cl)CC(C)O1 (stereo unspecified)
-3%	c1ccc(NN(Cc2cnccn2)c2ccccc2)cc1
-13%	O=C1CCCN1CN(C(=O)c1ccc2c(c1)OCO2)c1cccc(Cl)c1
-6%	Cc1ccccc1NC(=O)CSC1=NCCN1
-17%	Cc1ccc(C(=O)CSc2nnnn2C(C)C)c(C)c1

# An excerpt from above in order of length of the SMILES, descending.
HPGD inh	canonical_smiles
-4%	COc1ccc(O[C@H]2C=C[C@@H](c3ccccc3)O[C@@H]2CO/N=C(\C)CCN2CCc3nc(-c4ccccc4)c(-c4ccccc4)cc3C2)cc1
-5%	COC(=O)CCCC1=CC2=C(c3ccccc3)C(=O)C(C)(OC(=O)C3CCCC3)C(=O)C2=CO1 (stereo unspecified)
-17%	COc1ccccc1Nc1nc(-c2sc(NC(=O)c3ccc([N+](=O)[O-])cc3)nc2C)cs1
1%	Cc1[nH]c2ccccc2c1C(=O)CN1C(=O)NC2(CC(C)CC(C)(C)C2)C1=O (stereo unspecified)
-8%	CC(=O)c1ccc(NC(=O)C2CCCN2S(=O)(=O)c2cccc3cccnc23)cc1 (stereo unspecified)
-7%	O=C(c1ccc(COc2ccccc2Br)o1)N1N=C(C(F)F)CC1(O)C(F)F (stereo unspecified)
2%	CCC(Sc1nc(=O)cc(N)n1CCc1ccccc1)C(=O)Nc1ccccc1C#N (stereo unspecified)
-13%	O=C1CCCN1CN(C(=O)c1ccc2c(c1)OCO2)c1cccc(Cl)c1
-4%	CC1CCN(S(=O)(=O)c2cccc(C(=O)Nc3ccccn3)c2)CC1
-10%	CCOC1(OCC)N=C(N)C2(C#N)C(c3cccc(C)c3)C12C#N (stereo unspecified)
-7%	NS(=O)(=O)c1cc(C(=O)OCC(=O)NC2CC2)ccc1Cl
28µM*	CCN(CC)C(=O)c1cc2cc([N+](=O)[O-])ccc2s1
-10%	O=[N+]([O-])c1cccc(CN(CCO)Cc2ccccc2)c1
-6%	Cc1c(C(=O)N2CCC(C(N)=O)CC2)sc(N)c1C#N
-23%	CCOc1ccc(N=C2SC(C(=O)O)CC(=O)N2C)cc1 (stereo unspecified)
-17%	CC1N(O)C(C)(C)C(c2ccccc2)=[N+]1[O-] (stereo unspecified)
?	Cc1c(C)c2ccc(OS(C)(=O)=O)cc2oc1=O
-10%	O=S(=O)(NCc1cccnc1)c1cccc2nsnc12
0%	CC1CN(CCOc2ccc(Cl)cc2Cl)CC(C)O1 (stereo unspecified)
-13%	CC1(C)CC(=O)C=C(NCc2ccccc2)C1
-1%	Cc1cccc(N2CC(C(=O)O)CC2=O)c1 (stereo unspecified)
-6%	Cc1ccccc1NC(=O)CSC1=NCCN1

# The main list resumes with the five entries that preceded the break.
HPGD inh	canonical_smiles
0%	CC1CN(CCOc2ccc(Cl)cc2Cl)CC(C)O1 (stereo unspecified)
-3%	c1ccc(NN(Cc2cnccn2)c2ccccc2)cc1
-13%	O=C1CCCN1CN(C(=O)c1ccc2c(c1)OCO2)c1cccc(Cl)c1
-6%	Cc1ccccc1NC(=O)CSC1=NCCN1
-17%	Cc1ccc(C(=O)CSc2nnnn2C(C)C)c(C)c1
-4%	CCCCN1C2=NCCCN2c2ccccc21
-17%	CCOc1ccc(NC(=O)CSc2nnc(C3CC3)n2N)cc1
-9%	COc1ccc(C2CC(=O)c3c(ccc4ccccc34)N2)cc1OC (stereo unspecified)
-22%	COc1ccc(-c2nnc(N(C)C(=O)c3cccnc3)s2)cc1
-14%	COC(=O)C(C)Sc1nc2c(c(=O)n(C)c(=O)n2C)n1CCC(C)C (stereo unspecified)
-21%	Cc1cc(C)c2oc(-c3ccc(C)c(NC(=S)NC(=O)c4cccs4)c3)nc2c1
-13%	CCNC(=O)NC(=O)C(C)OC(=O)C1CCN(S(=O)(=O)c2ccccc2F)CC1 (stereo unspecified)
14µM*	C=CCSc1n[nH]c(-c2ccc(OC)cc2)n1
-19%	CCCCOC(=O)c1ccc(NC(=S)NC(=O)c2c(Cl)cnn2CC)cc1
?	Cc1cc(C)cc(OCC(=O)Nc2ccc(F)cc2)c1
-2%	CCOC(=O)c1nnn(-c2nc(OC)nc(N(C)C)n2)c1-c1ccccc1
-11%	CC(C)CC(OC(=O)c1cccs1)C(=O)NCc1ccco1 (stereo unspecified)
-3%	NNC(=O)C=C1CCN(c2ncc(C(F)(F)F)cc2Cl)CC1
-28%	Nn1c(-c2cccc(Br)c2)n[nH]c1=S
-7%	CCN(C(=O)COc1ccccc1)c1nnc(-c2cccnc2)s1
-8%	Cc1cc(C#N)c(C)n1-c1cc(C(F)(F)F)ccc1N1CCOCC1
-12%	CCC(C)C(NC(N)=O)C(=O)Nc1ccc(C)c(Cl)c1 (stereo unspecified)
?	S=c1[nH]nc(-c2ccc3ccccc3n2)o1
-2%	COc1ccccc1N1CCN(C(=O)c2ccc3c(=O)n(Cc4ccco4)c(=S)[nH]c3c2)CC1
-5%	CCOc1ccc(-c2nc(CSCC(=O)N3CCN(c4cccc(OC)c4)CC3)c(C)o2)cc1
16µM*	C=CCNC(=O)c1ccc2nccnc2c1
-3%	NCCC1([N+](=O)[O-])CCNCC1
?	COc1ccc(-c2cn3ccc4ccccc4c3n2)cc1
-2%	OCCN(CO)CO
-8%	O=C(O)C[C@H](Cc1ccccc1)C(=O)O
-1%	O=C(CS(=O)CC(=O)N(CC(=O)NC1CCCC1)C1CCCCC1)Nc1ccc(F)cc1 (stereo unspecified)
-8%	CC1CCC(C(=O)NC(C(=O)NCc2ccccn2)C(C)C)CC1 (stereo unspecified)
-27%	CCOC(=O)c1ccc2nc3c(cc2c1)CCS3
-13%	CCCCOc1ccc(NC(=O)CSCC(=O)OCC)cc1
-15%	O=C(NCc1ccc2c(c1)OCO2)c1ccc2snnc2c1
-9%	O=C1C=C(NCCNc2c(F)c(F)c(CO)c(F)c2F)CCC1
-18%	O=C(O)CCC(=O)N1N=C(c2c(-c3ccccc3)c3cc(Cl)ccc3[nH]c2=O)CC1c1cccs1 (stereo unspecified)
-1%	CC(C)n1c(Nn2cnnc2)nc2ccccc21
-18%	O=C1CCC(=O)N1OCCOc1ccc2c(c1)CCC2
-10%	COc1cc(NC(=O)c2cc(-n3cnnc3)ccc2Cl)cc(OC)c1
-6%	Cc1nn(C)cc1C(C(=O)NC1CCCCC1)N(C(=O)Cc1cccs1)c1ccc(F)cc1 (stereo unspecified)
?	COCCNC(=O)COc1ccc(Br)cc1Cl
?	CN(Cc1ccccc1)C(=O)c1c[nH]c2ccc(S(=O)(=O)N3CCOCC3)cc2c1=O
-5%	Cc1ccc(S(=O)(=O)N(c2nc(N(C)C)nc(N(C)C)n2)n2cnnc2)cc1
-5%	O=C(Nc1ccc(Oc2cccnc2)cc1)c1cccc([N+](=O)[O-])c1
-10%	O=C(Nc1ccc(Cl)cc1C(=O)NCCN1CCOCC1)c1ccc(Cl)cc1Cl
?	CCOC(=O)CCc1c(C)c2c(C)nn(-c3ccccc3)c2[nH]c1=O
?	Cn1c(=O)c2[nH]c(-c3ccccc3O)nc2n(C)c1=O
?	CCCOc1ccc(C2C(C(=O)OC)=CN(CCOC)C=C2C(=O)OC)cc1
-10%	CCc1nc2c(c(=O)c3ccccc3n2C)c(=O)n1C1CCCCCC1
